Screens deposited in PubChem by several laboratories.
Vif A3G – HIV-1 Vif–A3G interaction blockers – biochemical, TR-FRET, GST-Vif 1-94, biotin-A3G peptide, dose response retest, primary screen (AID 1117319). TR-FRET GST-Vif / biotin-A3G peptide binding; higher % means a stronger effect; test concentration not given here; strong numbers were not always called active. inhibition, %, or IC50 in µM where a hit was titrated. hit rate 0.57% among 260,000;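 active = above the screen mean plus three standard deviations and confirmed in dose response; inconclusive = results disagree or hit not tested in dose response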;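 note: Vif residues 1-94 fused to GST binding biotinylated APOBEC3G peptide 110-148; 0% = full assay without inhibitor and 100% = GST in place of GST-Vif; retest series ran down from 100 µM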
Bfl-1 A1 inh – inhibitors of the anti-apoptotic protein A1, read as caspase activation. MEF A1-2A-BIM cells, Caspase-Glo 3/7 luminescence, 3 h; percent of clofoctol response, vehicle zero. caspase activation, % (no concentration beside the values). hit rate 0.066% among 330,000. AID 2462;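 active = over half of replicate activation scores above 10%, or exactly half above 10 with the replicate mean above 10; inconclusive = replicate mean below 10 yet half the replicates above 10; inactive = over half of replicates below 10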;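 note: wells of about 30 µL received 50 nL stock; many hits fall short of the cut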
UCH37 inh – human UCH37 deubiquitinating enzyme inhibition; purified proteasome/UCH37, Ub-AMC cleavage fluorescence; inhibition, % (concentration not given with the values); hit rate 0.33% among 330,000; AID 588478;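 active = mean of two replicates above 20%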;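 note: 0% = compound-free wells with enzyme and 100% = wells lacking proteasome; stock transfer was 100 nL into about 20 µL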
Target sequence (Q9Y5K5 whole entry, looked up): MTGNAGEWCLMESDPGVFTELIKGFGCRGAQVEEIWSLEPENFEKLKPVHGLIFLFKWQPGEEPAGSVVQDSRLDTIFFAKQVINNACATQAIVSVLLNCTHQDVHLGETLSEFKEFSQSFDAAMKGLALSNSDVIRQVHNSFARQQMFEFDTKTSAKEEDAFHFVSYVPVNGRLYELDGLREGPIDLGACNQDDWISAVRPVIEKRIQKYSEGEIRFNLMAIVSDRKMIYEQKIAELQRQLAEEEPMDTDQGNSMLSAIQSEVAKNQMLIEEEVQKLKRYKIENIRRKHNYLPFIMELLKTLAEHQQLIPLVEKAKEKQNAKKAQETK
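Material: Human UCH37 enzyme supplied as purified proteasome complex | Schedule: 30 min compound-proteasome preincubation then 25 min substrate reaction, room temperature | Detection: AMC fluorescence from Ub-AMC cleavage, excitation 355 nm, emission 460 nm | Benchmarks: Wells without proteasome as full block, compound-free enzyme plus substrate as uninhibited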
LANA-H2B inh – blocks KSHV LANA binding to histone H2A/H2B | cell-free LANA-H2A/H2B peptide, fluorescence polarization | inhibition, % (concentration not given with the values) | hit rate 0.6% among 320,000; in the data active = inhibition mostly above about 10%, no sharp cut-off; inactive = mostly below about 6.7%;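 note: stock transfer was 7.5 nL into about 10 µL; 0% = median of vehicle wells and 100% = median of positive control wells; one replicate is shown; the record names a cut of 25% in any replicate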
B2AR ag – activates human beta-2 adrenergic receptor causing internalization; P07550; Am2.2-beta2AR cells, FAP receptor internalization, flow cytometry; reference of the scale not given here; response, % (test concentration not listed); hit rate 0.43% among 340,000; AID 504454;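 active = response above a set limit, near 3 SD of response in nonfluorescent compounds, cut at about 42% in these data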;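 note: stock transfer was 100 nL into about 11 µL; a reference agonist was the positive control; negative values mostly stem from fluorescent compounds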
Ecoli growth – E. coli growth inhibition; Escherichia coli growth, OD600, 23 h; stronger effect = lower value; OD600 absorbance (concentration not given with the values); hit rate 0.21% among 330,000;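 active = OD600 absorbance below the run mean of sample wells minus 3.6 SD, in any replicate, cut at about 0.56 in these data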;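 note: stock transfer was 300 nL into about 60 µL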
HNF4A DNA FP – change in binding of human HNF4 alpha to DNA | P41235 | HNF4a-FITC DNA binding, fluorescence polarization, 1 h | activity change, % at 10 µM | hit rate 0.3% among 360,000 | AID 1224865; in the data active = activity change above about 30%, passing the limit was not always enough;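 note: controls were the assay level and a saturating level of protein; the project sought stronger binding though the title names inhibitors; some compounds called inactive have numbers as strong as hits; positive values seem to mean higher polarization but the record does not say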
Target sequence (P41235 whole entry, looked up): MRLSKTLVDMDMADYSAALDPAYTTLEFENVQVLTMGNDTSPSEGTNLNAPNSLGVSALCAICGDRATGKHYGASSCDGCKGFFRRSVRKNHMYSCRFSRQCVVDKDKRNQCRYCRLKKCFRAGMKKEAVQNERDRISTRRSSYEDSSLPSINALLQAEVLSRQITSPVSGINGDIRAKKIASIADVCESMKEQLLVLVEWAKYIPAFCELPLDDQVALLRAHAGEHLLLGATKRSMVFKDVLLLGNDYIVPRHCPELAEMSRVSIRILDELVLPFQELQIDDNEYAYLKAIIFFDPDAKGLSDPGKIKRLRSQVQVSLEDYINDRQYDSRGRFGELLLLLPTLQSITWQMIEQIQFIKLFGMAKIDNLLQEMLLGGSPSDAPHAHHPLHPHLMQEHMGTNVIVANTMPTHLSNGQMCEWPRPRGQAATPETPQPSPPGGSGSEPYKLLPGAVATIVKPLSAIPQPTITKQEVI
The depositor's hits bear a star; u = inconclusive; x = not tested or not shown; & = joins results of further samples.

SMILES	Vif A3G	Bfl-1 A1 inh	UCH37 inh	LANA-H2B inh	B2AR ag	Ecoli growth	HNF4A DNA FP
C(=N\n1cnnc1)/c1ccc(N2CCOCC2)s1	-2%	-0.4	x	3.7	-7	x	0.0
CCOC(=O)c1nn(-c2ccccc2)c2nc(-c3ccc(OC)cc3)c(C#N)c(=O)n12	-19%	-1.3	-24	-1.7	-2	0.68	-1.4
COc1ccc(CCNC(=O)c2cc(-c3ccccn3)nc3ccccc23)cc1	x	-0.6	2.5	1.8	5	0.68	1.0
Cc1cccc(C)c1N(Cc1ccccc1F)S(C)(=O)=O	8%	0.2	1.8	0.6	1	0.66	-0.8
COc1ccccc1N1CCN(/N=C(\C)c2ccc(O)cc2)CC1	x	-0.9	x	-2.7	-7	x	-0.7
CC(C)c1ccc(NC2CCCN(C(=O)CCN3CCCO3)C2)cc1 (stereo not drawn)	3%	-0.1	2.4	0.1	10	0.72	-2.2
O=C(Nc1ncccc1O)c1ccc(Cl)c(S(=O)(=O)N2CCCCCC2)c1	6%	1.2	1.4	1.5	-13	0.7	17
COc1ccc(Nc2nc3ccccc3nc2NS(=O)(=O)c2cccs2)cc1	3%	0.6	-5.6	-2.0	4	0.73	-2.0
COc1ccc(NC(=O)N2CCc3ccccc3C2)cc1	x	1.6	2.4	-2.5	-5	0.59	-4.8
Cc1nc2ccccc2c(=O)n1CCCn1ccnc1	1%	-1.4	4.8	-0.7	3	0.74	4.2
O=C1CCc2cc(S(=O)(=O)Nc3ccc(F)cc3)ccc2N1	-18%	0.0	2.3	-141	3	0.61	5.5
CC1CCc2c(sc(NS(=O)(=O)c3ccccc3)c2C(=O)OC(C)C)C1 (stereo not drawn)	u	2.3	4.6	-0.5	3	0.7	4.1
Cn1c(Sc2ccc(C(F)(F)F)cc2[N+](=O)[O-])nnc1-c1ccccc1	10%	0.5	2.7	-1.5	-10	0.73	2.6
O=C(Nc1ccccc1)N(Cc1ccccc1)Cc1ccccc1	24%	x	4.2	x	-2	0.73	-0.7
CN1CCN(C(=O)/C=C/c2ccc(Cl)c(Cl)c2)CC1	x	-1.0	2.4	-4.8	5	0.66	-0.1
COC(=O)c1ccc(COc2ccccc2/C=N/NC(N)=O)o1	x	1.1	x	-3.4	5	x	0.6
CCOc1ccc(-n2c(SCC(=O)Nc3nccs3)nnc2-c2ccoc2C)cc1	-2%	-0.1	1.7	4.1	-17	0.72	1.9
O=C(/C=C/c1ccccc1)NC(=S)Nc1cccnc1	0%	-0.2	4.7	5.6	0	0.65	0.3
COc1ccccc1N1CCN(C(=O)C(C)N(c2ccc(C)c(C)c2)S(C)(=O)=O)CC1 (stereo not drawn)	9%	0.0	-1.3	-1.3	-2	0.7	3.0
COc1ccc(/C(C)=N/N=C2/NC(=O)CC(C(=O)O)S2)cc1 (stereo not drawn)	12%	0.3	x	-4.6	-6	x	-0.8
O=C(CSCc1ccc(Cl)cc1)NCC1CCCO1 (stereo not drawn)	6%	1.0	4.8	-10	3	0.7	1.9
O=C(N/C(=C/c1cccc([N+](=O)[O-])c1)C(=O)N1CCCCCC1)c1ccco1	8%	1.1	2.4	2.8	-5	0.69	3.1
COc1ccccc1CNC(=O)N1CCN(c2ccccc2Cl)CC1	3%	0.4	2.9	4.5	-2	0.66	-2.3
Cc1ccc(SCc2cc(-c3ccc(Cl)cc3)no2)cc1	-1%	0.5	0.9	-6.2	2	0.73	1.2
CC(C)(Oc1ccc(C2CC2(Cl)Cl)cc1)C(=O)O (stereo not drawn)	x	-0.6	1.6	-1.8	-3	0.69	1.4
CC(=NCCc1c(C)[nH]c2ccc(OCc3ccccc3)cc12)C1=C(O)CC(c2ccccc2)CC1=O (stereo not drawn)	-11%	-0.7	5.3	1.9	-4	0.73	19
COCCn1c(C)nnc1SCC(=O)Nc1ccccc1[N+](=O)[O-]	17%	0.5	1.2	-2.5	-1	0.7	-1.5
COc1cc2nc(=S)n(CCCN3CCOCC3)c(N)c2cc1OC	x	x	3.2	x	-2	0.7	0.3
Nc1nc(NCC2CCCO2)nc(NCC2CCCO2)c1[N+](=O)[O-] (stereo not drawn)	11%	-0.2	14	-3.9	-3	0.67	0.1
CCOc1cc2c(cc1OCC)CN(C(=O)c1cccc(S(=O)(=O)N3CCCC3)c1)CC2	-4%	-0.5	3.5	-2.3	-1	0.68	5.7
CC1=NN(C(=O)Cc2ccc(C)cc2)C(O)(c2cccnc2)C1 (stereo not drawn)	-4%	0.1	2.6	4.8	3	0.66	-3.4
CC(C)(C)OC(=O)N1CC(O)CC1C(=O)OCC(=O)c1ccc(Cl)cc1 (stereo not drawn)	13%	-0.6	3.0	-5.7	-4	0.72	1.7
O=C(NCC1CCCO1)c1cc(S(=O)(=O)Nc2ccc(Br)cc2)ccc1Cl (stereo not drawn)	27%	-0.6	-1.9	1.7	7	0.65	-2.0
CCCCCCCCCCOC(=O)c1csc2nnsc12	2%	0.1	2.4	-7.6	8	0.67	-0.8
Cc1ccn2c(Nc3ccc4c(c3)OCO4)c(-c3ccc(O)cc3)nc2c1	x	0.0	-195	3.6	10	0.69	1.2
CC(=O)c1sc(NC(=O)CCS(=O)(=O)c2ccc(Cl)cc2)nc1C	-10%	-0.1	2.2	5.6	9	0.65	0.1

Some of these compounds in order of their number in B2AR ag, lowest first:
SMILES | B2AR ag
Nc1nc(NCC2CCCO2)nc(NCC2CCCO2)c1[N+](=O)[O-] (stereo not drawn) | -3
CCOc1cc2c(cc1OCC)CN(C(=O)c1cccc(S(=O)(=O)N3CCCC3)c1)CC2 | -1
CCCCCCCCCCOC(=O)c1csc2nnsc12 | 8

Next part.
SMILES	Vif A3G	Bfl-1 A1 inh	UCH37 inh	LANA-H2B inh	B2AR ag	Ecoli growth	HNF4A DNA FP
CC(C)Cn1c(N)c(C(=O)COC(=O)c2ccc(O)cc2)c(=O)n(C)c1=O	15%	1.5	2.0	4.6	-1	0.68	2.4
CC(=O)Nc1nonc1NC(=O)CSc1ccccn1	-2%	-0.7	2.5	0.3	-3	0.72	1.8
O=C(NCc1cccs1)Nc1cccc(Cl)c1	7%	-2.7	3.0	2.8	3	0.73	1.4
O=C(O)c1csc(N/N=C/c2ccc(Br)cc2)n1	29%	x	x	x	-6	x	-5.5
O=C(O)CSc1nc2ccccc2n1-c1ccccc1	-1%	0.4	0.0	1.3	-3	0.66	-0.6
Cc1cc(NCC(C)C)n2ncnc2n1	0%	-0.2	5.2	5.3	1	0.71	-4.8
C/C(=C1/C(=O)N(c2ccc([N+](=O)[O-])cc2)N=C1c1ccccc1)N(C)C	-1%	-3.7	x	-2.6	x	x	x
COc1ccc(CC(=O)NC2CCCCCC2)c(OC)c1	x	0.4	-1.2	4.4	0	0.71	-1.4
CC(=O)C1C(c2cccc(F)c2)NC(=O)NC1(O)C(F)(F)F (stereo not drawn)	6%	0.5	4.2	3.6	2	0.68	-0.4
COc1ccc(NC(=O)C2CCCN2C(=O)NC2CCCCC2)c(OC)c1 (stereo not drawn)	x	-0.4	-11	-1.8	-4	0.64	0.4
COc1ccc(CN2CCN(C(C)C(=O)N(C)Cc3cccc(F)c3)CC2)cc1OC (stereo not drawn)	0%	0.1	0.2	-2.7	-4	0.67	0.5
Cc1c(NC(=O)C(CC(=O)O)NCc2ccco2)c(=O)n(-c2ccccc2)n1C (stereo not drawn)	-10%&-1%	x	-2.2	x	2	0.74	2.6

Among those listed so far, these contain a furan ring, fused or not:
SMILES	Vif A3G	Bfl-1 A1 inh	UCH37 inh	LANA-H2B inh	B2AR ag	Ecoli growth	HNF4A DNA FP
COC(=O)c1ccc(COc2ccccc2/C=N/NC(N)=O)o1	x	1.1	x	-3.4	5	x	0.6
CCOc1ccc(-n2c(SCC(=O)Nc3nccs3)nnc2-c2ccoc2C)cc1	-2%	-0.1	1.7	4.1	-17	0.72	1.9
O=C(N/C(=C/c1cccc([N+](=O)[O-])c1)C(=O)N1CCCCCC1)c1ccco1	8%	1.1	2.4	2.8	-5	0.69	3.1
Cc1c(NC(=O)C(CC(=O)O)NCc2ccco2)c(=O)n(-c2ccccc2)n1C (stereo not drawn)	-10%&-1%	x	-2.2	x	2	0.74	2.6

The list goes on.
SMILES	Vif A3G	Bfl-1 A1 inh	UCH37 inh	LANA-H2B inh	B2AR ag	Ecoli growth	HNF4A DNA FP
O=[N+]([O-])c1ccc(C(O)CNC(=S)Nc2ccccc2)cc1 (stereo not drawn)	0%	0.3	-0.3	0.4	4	0.69	-1.6
CCOc1ncccc1C(=O)N1CCN(c2ccc(C(F)(F)F)cn2)CC1	19%	0.9	-2.8	2.8	-2	0.69	91*
CCOC(=O)c1c(C)[nH]c(C)c1S(=O)(=O)N(C)CC(=O)Nc1ccc(C)cn1	x	-0.5	-1.0	-1.2	1	0.68	2.4
CC1CCC2(CC1)NC(=O)N(CC(=O)Nc1cccc(S(=O)(=O)N3CCCC3)c1)C2=O (stereo not drawn)	-5%	0.3	-0.2	-0.3	1	0.7	-2.8
Cn1nc(C(=O)Oc2cc(=O)n(C)c3ccccc23)c2ccccc2c1=O	-7%	-0.5	4.7	-1.9	0	0.72	3.1
Cc1cccc(NC(=O)/C(C#N)=C/c2ccc(F)cc2)n1	-12%	-1.0	-2.9	-6.1	12	0.66	-3.9
COc1cc(OC)cc(-c2nnc(SCC(=O)N(Cc3ccccc3)C(C)(C)C)o2)c1	2%	0.1	3.9	2.7	-2	0.73	-1.4
O=C(CCN1C(=O)C2CC=CCC2C1=O)Nc1nccs1 (stereo not drawn)	-3%	-0.3	-0.1	2.6	0	0.7	-5.3
Cc1n[nH]c(C)c1CN(C)C(=O)C1CCC(=O)N(CC2CCCCC2)C1 (stereo not drawn)	x	0.2	0.2	-2.8	6	0.65	2.4
CCC(Oc1cc(Cl)ccc1Cl)C(=O)N1CCCN(C)CC1 (stereo not drawn)	x	-0.4	0.2	3.5	3	0.69	3.7
CS(=O)(=O)N(CCc1ccccc1)CC(=O)N1CCN(c2ccccc2F)CC1	-2%	0.2	-1.2	-1.6	-4	0.7	-2.4
C/C(=N\NC(=O)Cn1cnc2ccccc21)c1cccs1	x	-0.4	x	2.9	-7	x	-0.6
Cc1ccc(C(C(=O)NC2CCCC2)N2CCCCC2)cc1 (stereo not drawn)	-1%	0.1	2.6	1.2	6	0.71	-1.5
Cc1nn(-c2nnc(NC3CCCCC3)nn2)c(C)c1Br	x	-3.6	4.7	-1.6	-5	0.75	-0.8
O=C(COC(=O)CNC(=O)C1CCCCC1)Nc1ccc(Br)cc1Br	x	-0.3	-0.2	-8.5	1	0.69	0.7
COc1ccc(-n2c(COc3ccc(C)cc3)nnc2SCC(=O)O)cc1	x	-0.2	x	-2.1	-2	x	1.1
COc1ccc(CCNC(=O)CN2C(=O)C3(OCCCO3)c3ccccc32)cc1OC	5%	0.2	3.6	1.4	3	0.73	2.8
CCN1CCN(C(=O)/C=C/c2ccc3c(c2)OCO3)CC1	8%	-0.7	-27	0.7	-1	0.65	-0.2
CNCC(O)c1ccc(OC(=O)C(C)(C)C)c(OC(=O)C(C)(C)C)c1 (stereo not drawn)	x	-1.0	2.1	-3.4	16	0.7	-0.8
Cc1ccc(C)c(Nc2cc(C)nc3ccccc23)c1	x	0.1	7.2	-0.3	8	0.57	0.5
CCCOc1ccc(NC(=O)CC2C(=O)N(c3ccc(OCC)cc3)C(=S)N2C2CC2)cc1 (stereo not drawn)	5%	1.5	3.6	5.0	0	0.7	-1.4
COCCC(=O)Nc1ccc2c(c1)CN(C(=O)CCSC)CC2	2%	0.8	2.5	3.9	2	0.68	0.0
COc1ccc(-c2nc(N=Nc3ccc(O)cc3)n[nH]2)cc1	-2%	0.8	6.4	x	11	0.64	3.9
O=C(NNC(=O)c1ccc(Br)o1)c1csc(N2CCOCC2)n1	x	0.3	x	0.8	-7	x	4.3
